Screening data as filed in PubChem.
CBX7 inh = CBX7 chromodomain binding inhibitors, primary screen, biochemical, AlphaScreen | actives 1.1% (n = 66,000) | Chromobox protein homolog 7 (Homo sapiens), O95931 | AlphaScreen His6-CBX7 / biotin-H3K27me3 peptide binding; active compounds read low | normalised signal (fraction of DMSO) (test concentration not listed); in the data active means normalised signal below about 0.5;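 further: 100 nL library stock added to about 20 µL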
Target sequence (O95931 whole entry, looked up): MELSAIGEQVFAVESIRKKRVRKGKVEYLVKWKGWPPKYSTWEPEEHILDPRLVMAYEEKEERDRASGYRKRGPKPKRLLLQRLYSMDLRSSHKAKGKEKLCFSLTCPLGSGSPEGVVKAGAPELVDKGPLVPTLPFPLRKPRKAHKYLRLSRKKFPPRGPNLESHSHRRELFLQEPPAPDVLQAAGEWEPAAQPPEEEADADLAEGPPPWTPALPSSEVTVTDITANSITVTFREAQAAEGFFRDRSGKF
CBX7 inh z-score = also measured in CBX7 inh; calls as there; z-score; measured here: z-score of CBX7 signal; some inactives read as strong as hits; reference of the scale not given here;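 same signal on another scale; lower means less binding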
An asterisk follows results filed as active. Only part of the results is shown; count on the stated rates, not on these rows.

Values in the order: CBX7 inh	CBX7 inh z-score
Cc1oc(-c2ccccc2F)nc1Cn1c(SCc2ccccc2F)nc2ccncc21
  1.06	2.99
COc1ccccc1NC(=O)c1cc2c(s1)-c1ccccc1OC2
  1.65	14.6
Cc1noc(/C=C/c2cccs2)c1S(=O)(=O)N1CCC(C(=O)Nc2cccnc2)CC1
  0.904	-0.199
COc1cc(NC(=O)c2ccc(CNc3c(N4CCC(C)CC4)c(=O)c3=O)cc2)cc(OC)c1
  0.997	-0.109
Cc1ccc(CNS(=O)(=O)c2cc(Br)cc3c2N(C(=O)C2CC2)CC3)cc1
  1.03	1.35
COc1ccc(Cl)cc1NC(=O)c1cnc(N2CCN(c3ccccc3OC)CC2)c2ccccc12
  1.06	1.59
CC(=O)NC(CCS(C)(=O)=O)C(=O)Nc1ccc(Br)c(C)c1 (stereo not drawn)
  1.05	2.03
O=C1c2[nH]nc(-c3ccccc3)c2C(c2ccc(O)cc2)N1c1ccccc1 (stereo not drawn)
  0.977	-0.0466
COc1cc(OC)cc(-c2nc3nc(C)c(CCC(=O)Nc4ccc(F)cc4)c(C)n3n2)c1
  1.02	0.49
COc1ccc(-c2nc(CN3CCCC(C(=O)NC4CCCC(C)C4C)C3)c(C)o2)cc1 (stereo not drawn)
  0.966	-0.946
COc1cccc(OC)c1OCC(O)CN1CCN(c2cccc(Cl)c2)CC1 (stereo not drawn)
  1.03	0.87
Cc1nc2c(-c3ccccc3)c(C)nn2c(C)c1CCC(=O)Nc1ccccc1C(N)=O
  1.03	0.354
CC(C)(C)c1ccc(OCC(=O)NCCc2nc3ccccc3[nH]2)cc1
  0.903	-0.224
O=C(NC1CCCC1)c1c[nH]c2ccc(S(=O)(=O)Nc3ccc4c(c3)OCCO4)cc2c1=O
  0.934	-1.22
CC1(C)CC(=O)N(CC(=O)N2CCN(c3ncccn3)CC2)c2ccccc2S1
  1.02	0.445
COc1ccc(C2CC(=O)N(Cc3ccc(F)cc3)c3ccccc3S2)cc1 (stereo not drawn)
  1.07	1.06
CCOC(=O)c1cnc2cc(Cl)c(OC)cc2c1Nc1cccc(Cl)c1
  1.07	0.0824
N#CCCCSc1nnc(-c2ccc(Cl)cc2)n1-c1ccccc1
  0.969	-1.19
CC1CCC(NC(=O)c2cc(=O)[nH]c3ccc(S(=O)(=O)N4CCC(C)CC4)cc23)CC1 (stereo not drawn)
  0.942	-1.09
COc1cccc(C(=O)CC2(O)C(=O)Nc3ccc(Br)cc32)c1 (stereo not drawn)
  0.919	-0.0908
COc1ccc(NC(=O)c2cc3c(n(-c4ccc(OC)cc4)c2=O)CCCC3=O)cc1
  1.67	2.36
CCOC(=O)N1CCN(C(=O)Cn2ncc3c2-c2ccccc2OC3)CC1
  0.928	-0.904
CC(c1ccccc1)c1nnc(NC(=O)c2ccc3c(c2)OCO3)s1 (stereo not drawn)
  1.07	0.279
Clc1ccc(-c2nnc(-c3ccncc3)o2)cc1
  1.02	0.303
CCC(=O)NCc1nc2ccccc2n1Cc1ccccc1C
  0.857	-1.65
COc1cccc(CNS(=O)(=O)c2c(C)noc2C)c1
  1.03	1.42
Cc1cccc(C(=O)Nc2sc3c(c2C(=O)Nc2ccccn2)CCC(C)C3)c1 (stereo not drawn)
  1.2	3.5
COc1ccc(-c2noc(COc3cccc(C)c3)n2)cc1OC
  1.07	2.37
Fc1ccc(CSc2nc3ccncc3n2Cc2cccc(F)c2)cc1
  0.981	-0.9
Cc1ccc2c(c1)c1cccc3c1n2CCN3CCC(N)=O
  0.699	-3.57
O=C(Cn1c(-c2ccccn2)nc2ccccc21)NCCN1CCOCC1
  0.978	-0.64
Cc1ccc(Cn2c(=O)cc(C(=O)NCc3ccccc3Cl)c3ccccc32)cc1
  0.91	-0.976
Cc1c(C(=O)Nc2ccc(F)cc2)oc2ccc(S(=O)(=O)N(C)C3CCCCC3)cc12
  1.05	2.07
COc1ccc(-n2nc3c(c2NC(=O)Cc2ccc(F)cc2)CSC3)cc1
  1.01	0.253
Brc1ccc(-n2cc(-c3ccccc3)c3c(NCCN4CCOCC4)ncnc32)cc1
  0.968	-0.905
Cc1ccc(CCNC(=O)c2c[nH]c3ccc(S(=O)(=O)Nc4ccc(C)cc4C)cc3c2=O)cc1
  0.804	-3.68
CCC(=O)N1CCc2cc(S(=O)(=O)N3CCCCC3)ccc21
  1.12	2.42
Cc1ccc(S(=O)(=O)N2CCC(C(=O)Nc3ccc(F)cc3F)CC2)cc1
  1.07	3.04
CCOC(=O)c1sc(NC(=O)COc2ccc(Cl)cc2C)nc1C
  1.58	2.06
CCc1ccc(NC(=O)CSc2nnnn2-c2ccc(C(N)=O)cc2)cc1
  1.05	0.498
COc1ccccc1NC(=O)c1nn(C)cc1Br
  0.967	-0.65
O=C(NC1CCCCCC1)C1c2ccccc2C(=O)N1Cc1ccccc1Cl (stereo not drawn)
  1.08	0.984
COCCCNS(=O)(=O)c1ccc2c(c1)CCN2C(=O)CCC(=O)O
  1.09	2.84
C=CCn1c(C2CC(=O)N(c3cccc(C(F)(F)F)c3)C2)nc2ccccc21 (stereo not drawn)
  1.19	1.36
COc1ccc(N2CCN(S(=O)(=O)c3cnc[nH]3)CC2)cc1
  1.04	0.0742
Cc1cc(C(=O)Nc2cccc(Cl)c2)n(-c2ccccc2)n1
  1.04	0.957
CC(C)N(C(=O)Nc1ccc2snnc2c1)C(C)C
  1.03	1.34
COc1ccc(C2CC(=O)c3c([nH]c(C(=O)OCCc4ccccc4)c3C)C2)cc1 (stereo not drawn)
  0.985	-0.196
COc1ccc(C(c2nnnn2C(c2ccccc2)c2ccccc2)N2CCOCC2)cc1 (stereo not drawn)
  0.965	-1.33
Cn1c(=O)[nH]c(=O)c2c1nc(CN1CCN(c3cccc(Cl)c3)CC1)n2CCN1CCOCC1
  0.996	-0.154
O=C(C1c2ccccc2C(=O)N2CCc3ccccc3C12)N1CCOCC1 (stereo not drawn)
  0.891	-1.79
Cc1ccn2cc(-c3ccc(S(=O)(=O)N4CCCCC4)cc3)nc2c1
  1	0.0064
Cc1cc(C)c(-c2csc(NC(=O)CN3C(=O)CCC3=O)n2)c(C)c1
  1.05	0.375
Cc1ccc(NC(=O)CCC(=O)Nc2ccc3nc(N4CCCCC4)cc(C)c3c2)c(Br)c1
  1.04	1.09
Cc1cccc(CN2CCN(CC(=O)NC3CCCCC3C)C2=O)c1 (stereo not drawn)
  0.979	-0.38
CCN1C(=O)c2ccccc2Sc2ccc(C(=O)NCc3cc(OC)ccc3OC)cc21
  1.04	0.293
CCOC(=O)c1c(NC(=O)c2c(C)cc(C)cc2C)sc(C)c1C
  0.981	-0.296
O=C(c1ccc2c(c1)N(Cc1ccc(Cl)cc1)C(=O)c1ccccc1S2(=O)=O)N1CCCC1
  0.975	-0.602
CCOc1ccc(NC(=O)CCc2c(C)nc3nc(C)nn3c2C)cc1
  1.05	1.1
COc1ccc(Cc2nnc(SCC(=O)Nc3cc(Cl)ccc3C)o2)cc1
  0.947	-0.607

Further compounds follow:
Values in the order: CBX7 inh	CBX7 inh z-score
Cc1onc(-c2ccccc2Cl)c1C(=O)Nc1ccccc1F
  1.07	1.51
CCOc1cccc(=O)c2c(C)n(-c3ccc(C)cc3)c(C)c12
  0.989	-0.411
CNC(=O)c1ccc(Nc2nnc(-c3ccc(C)c(S(=O)(=O)N4CCCCC4)c3)c3ccccc23)cc1
  0.825	-3.3
CCOc1ccccc1NC(=O)CN1C(=O)c2ccccc2S1(=O)=O
  1.15	1.46
Cc1cccc(CCNS(=O)(=O)c2ccc3c(c2)CCN3C(=O)C2CCC2)c1
  1.03	0.955
CCCc1cc(C(=O)N2CCN(C(c3ccccc3)c3ccccc3)CC2)no1
  1.07	1.47
Cc1nc2cc(-c3cccc(F)c3)nn2c(C)c1CCC(=O)NCc1ccc(F)cc1
  1.07	1.44
O=C(CSc1nnc(-c2ccccc2F)o1)N1CCCc2ccccc21
  1.14	2.2
O=C(NCc1ccc(F)cc1)c1cc(=O)[nH]c2ccc(S(=O)(=O)N3CCCCC3)cc12
  0.996	-0.05
O=C(CCN1C(=O)COc2ccccc21)NCCN1CCN(c2cccc(Cl)c2)CC1
  0.994	-0.173
COc1cccc(C(=O)Nc2nnc(CCS(=O)(=O)c3ccc(C)cc3)s2)c1
  1.06	2.51
CCn1c(SCC(=O)Nc2ccc(OC)cc2)nnc1-c1c[nH]c2ccccc12
  1.1	0.663
CCN1C(=O)c2ccccc2Sc2ccc(C(=O)NCCN3CCOCC3)cc21
  1.07	1.19
O=C(Nc1cccs1)Nc1c(F)cc(F)cc1Br
  1.02	1.07
Cc1[nH]c2ccc(Br)cc2c1CCNS(=O)(=O)c1ccc(C(C)(C)C)cc1
  0.739	-4
O=C(Nc1ccc(-c2noc(Cc3ccc(Cl)cc3)n2)cc1)c1cccs1
  1.02	0.302
O=C(NCCc1ccc(Cl)cc1)c1ccc2c(c1)ncn2C1CCCCCC1
  0.856	-1.54
CCOC(=O)Cn1c(=O)c(-c2ccccc2NCc2ccccc2)nc2ccccc21
  0.977	-0.33
Cc1ccc(-c2nnc(Nc3ccccc3)c3ccccc23)cc1S(=O)(=O)NCCO
  1.08	0.873
CCCCN(CC)CCCNC(=O)Cn1nc(Cc2cccnc2)c2ccccc2c1=O
  1.04	0.05
CCCC1=Nc2cc(C(=O)NC(C)c3ccccc3)ccc2Sc2ccc(C)cc21 (stereo not drawn)
  0.834	-2.38
O=C(Nc1ccc(Oc2ccccc2)cc1)c1cnc(N2CCN(c3ncccn3)CC2)c2ccccc12
  0.998	-0.0145
Cc1ccccc1-c1nc(CN2CCCC(C(=O)O)C2)c(C)o1 (stereo not drawn)
  1.04	0.472
Cc1ccccc1NC(=O)c1cnc(Nc2nc3ccccc3o2)nc1C
  0.167*	-16.4*
CC1CCCC(C)N1CCNC(=O)C1C2C=CC3(CN(Cc4ccccc4Cl)C(=O)C13)O2 (stereo not drawn)
  1.06	3.01
CC1CCCCC1NC(=O)c1cc(Nc2cccc(C(F)(F)F)c2)nc2ccccc12 (stereo not drawn)
  1.06	0.973
COc1ccccc1Nc1nc(-c2c(C)nc3ncccn23)cs1
  0.75	-4.96
COc1ccc(S(=O)(=O)NCc2ccc(C(=O)N3CCc4ccccc43)cc2)cc1
  0.835	-2.08
CCC1Oc2ccc(C)cc2N(CC(=O)NCCc2ccc(C)cc2)C1=O (stereo not drawn)
  0.899	-1.17
O=C(CCNS(=O)(=O)c1ccc2c(c1)CCC(=O)N2)Nc1ccc(F)cc1F
  1.1	1.87
Cc1cc(NC(=O)CN2CCN(c3ccc(Cl)cc3)CC2)no1
  0.88	-1.15
CNC(=O)c1nnc(Cc2ccc(F)cc2)o1
  1.09	1.09
CC(=O)NCCc1cc2cc(C)c(C)cc2[nH]c1=O
  1.12	0.797
Cc1ccc(C)c(C(=O)CN2C3=NCCCN3c3ccccc32)c1
  0.84	-1.75
CC(C(=O)Nc1ccccc1F)N1C(=O)c2ccccc2C1=O (stereo not drawn)
  1.06	2.47
COc1ccc(OC)c(CCNC(=O)Cn2ncc3c2-c2cc(C)ccc2OC3)c1
  0.938	-1.17
CN(CCCNC(=O)c1csc2c1CCCC2)Cc1ccccc1
  1.03	1.09
COc1ccc(CCNC(=O)Cc2ccc(-n3c(=O)[nH]c4ccsc4c3=O)cc2)cc1OC
  1.07	0.323
CCN(CC)CCCNC(=O)c1cc(-c2ccc(F)cc2)on1
  1.05	0.574
CCc1ccc(-c2nc(CN3CCC(C(=O)N4CCN(c5ccccc5F)CC4)CC3)c(C)o2)cc1
  0.835	-2.53
Cc1nc(N2CCN(c3ccccc3F)CC2)c2c3c(sc2n1)CCC3
  0.911	-0.862
Cc1ccccc1Nc1c(-c2ccsc2)nc2ncccn12
  0.995	-0.0051
O=C(Nc1ccc2nc(-c3cccnc3)[nH]c2c1)C12CC3CC(CC(C3)C1)C2
  0.981	-0.208
O=C(c1cc2c(s1)-c1ccccc1OC2)N1CCN(c2ccccn2)CC1
  1.02	0.758
CCOC(=O)c1cc(-c2ccc(OC)cc2)n(CCC(=O)NCCc2ccc(C)cc2)c1C
  0.994	-0.15
Cc1nc2c(C(=O)NCCC(C)C)cnn2c(C)c1Cc1c(F)cccc1Cl
  0.995	-0.131
COc1ccc(OC)c(-c2nc(Nc3ccccc3F)sc2CC(=O)O)c1
  1.13	1.85
Cc1cc(N2CCOCC2)nc2ccc(NC(=O)Cc3ccc(Cl)cc3)cc12
  1.1	0.686
CCc1ccc(NC(=O)Cn2cc(S(=O)(=O)c3ccc(C)cc3)c(=O)c3cc(F)ccc32)cc1
  1.08	1.19
